# Compound activity deposited in PubChem by several laboratories.
# E coli growth = blocks Escherichia coli growth; OD600, 23 h; hits give low values; OD600 absorbance (concentration not given with the values); 0.21% of 330,000 active;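 active = OD600 absorbance below the run mean of sample wells minus 3.6 SD, in any replicate, cut at about 0.56 in these data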;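 note: stock transfer was 300 nL into about 60 µL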
# A1 inh = inhibitors of the anti-apoptotic protein A1, read as caspase activation | 0.066% of 330,000 active | MEF A1-2A-BIM cells, Caspase-Glo 3/7 luminescence, 3 h; percent of clofoctol response, vehicle zero | caspase activation, % (no concentration beside the values);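 active = over half of replicate activation scores above 10%, or exactly half above 10 with the replicate mean above 10; inconclusive = replicate mean below 10 yet half the replicates above 10; inactive = over half of replicates below 10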;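 note: wells of about 30 µL received 50 nL stock; many hits fall short of the cut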
# UCH37 inh = inhibitors of human deubiquitinating enzyme UCH37. Q9Y5K5. purified proteasome/UCH37, Ub-AMC cleavage fluorescence. inhibition, % (concentration not given with the values). 0.33% of 330,000 active;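 active = mean of two replicates above 20%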;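 note: 0% = compound-free wells with enzyme and 100% = wells lacking proteasome; stock transfer was 100 nL into about 20 µL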
# Target sequence (Q9Y5K5 whole entry, looked up): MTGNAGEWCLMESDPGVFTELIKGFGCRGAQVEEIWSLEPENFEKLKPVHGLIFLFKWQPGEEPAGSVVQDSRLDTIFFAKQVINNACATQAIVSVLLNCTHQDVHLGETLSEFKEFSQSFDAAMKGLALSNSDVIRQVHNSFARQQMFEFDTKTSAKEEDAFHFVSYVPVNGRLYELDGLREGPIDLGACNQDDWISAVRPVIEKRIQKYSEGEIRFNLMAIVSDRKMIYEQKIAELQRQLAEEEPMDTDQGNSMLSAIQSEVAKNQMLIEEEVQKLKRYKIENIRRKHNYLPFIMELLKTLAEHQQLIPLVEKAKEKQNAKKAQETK
#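 Schedule: 30 min plus 25 min, room temperature / Material: human UCH37 within purified proteasomes / Technique: AMC fluorescence intensity at 355/460 nm / Buffer or medium: pH 7.4 Tris-HCl (50 mM) with ovalbumin, ATP-MgCl2, DTT / Controls: wells without proteasome as full block, compound-free enzyme plus substrate as uninhibited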
# Beta cell apopt = blocks beta cell apoptosis. INS-1E cytokine-induced death, ATP luminescence, 48 h; percent of positive-control rescue, neutral wells zero. protection from apoptosis, % (test concentration not listed). 0.8% of 300,000 active. AID 435005;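 active = all replicates at 75% or more, or half of them and the mean; inconclusive = half reach 75% but not the mean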;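 note: 0% = cytokine-treated negative control wells and 100% = positive control rescue; higher means more ATP so stronger rescue from cytokine killing; wells of about 40 µL received 100 nL stock; the first replicate is given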
# FGF22 binding = FGF22 (human) thermal shift binding. Q9HCT0. recombinant FGF22 thermal shift, SYPRO orange fluorescence; percent of sucrose octasulfate shift, DMSO zero. calls only at 9.99 µM. 1.5% of 340,000 active;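 active = melting point raised past a set limit in the mean and every replicate; inconclusive = no clear call; three in four hits are not shown here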
# Ecoli rRNA inh = inhibits bacterial ribosomal RNA function over humanized ribosomes; E. coli WT GFP vs humanized-ribosome RFP mutants, fluorescence, 24 h; hits give low values; DMSO median 0, no signal -100; GFP signal change (wild-type ribosome), % (no concentration beside the values); 1.6% of 350,000 active;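 active = significant combined selectivity score with lowered wild-type GFP, culture density cut under 30%, mutant RFP and density less affected; inactive = any of these conditions unmet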; note: one replicate is shown; some compounds called inactive have numbers as strong as hits
# T cruzi inh = T. cruzi replication inhibition; T. cruzi beta-gal in NIH3T3, luminescence, 90 h; 1.4% of 300,000 active; inhibition, % (concentration not given with the values);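 active = mean inhibition across valid replicates above about 55%, limit read from the data; inconclusive = mean below that limit but half or more replicates reach it; inactive = mean below it, under half of replicates reach it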;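 note: signal also drops with host cell toxicity which is not excluded here; 0% = plate median of DMSO wells and 100% = zero luminescence signal; higher percent means less beta-gal luminescence so fewer parasites; stock transfer was 50 nL into about 50 µL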
# AF4-AF9 inh = inhibitors of human MLL-AF4/AF9 interaction; P42568; AlphaScreen, biotin-AF4 peptide binding to FLAG-AF9; inhibition, % at 10 µM; 0.47% of 350,000 active; AID 651704;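 active = every replicate reaching a set inhibition limit, whatever the replicate mean, cut at about 25% in these data; inconclusive = mean inhibition reaches that limit but some replicates miss it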;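 note: 0% = plate neutral control median and 100% = total signal loss; the record names both 10 and 1 µM as test concentration; the first replicate is given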
# Target sequence (P42568 whole entry, looked up): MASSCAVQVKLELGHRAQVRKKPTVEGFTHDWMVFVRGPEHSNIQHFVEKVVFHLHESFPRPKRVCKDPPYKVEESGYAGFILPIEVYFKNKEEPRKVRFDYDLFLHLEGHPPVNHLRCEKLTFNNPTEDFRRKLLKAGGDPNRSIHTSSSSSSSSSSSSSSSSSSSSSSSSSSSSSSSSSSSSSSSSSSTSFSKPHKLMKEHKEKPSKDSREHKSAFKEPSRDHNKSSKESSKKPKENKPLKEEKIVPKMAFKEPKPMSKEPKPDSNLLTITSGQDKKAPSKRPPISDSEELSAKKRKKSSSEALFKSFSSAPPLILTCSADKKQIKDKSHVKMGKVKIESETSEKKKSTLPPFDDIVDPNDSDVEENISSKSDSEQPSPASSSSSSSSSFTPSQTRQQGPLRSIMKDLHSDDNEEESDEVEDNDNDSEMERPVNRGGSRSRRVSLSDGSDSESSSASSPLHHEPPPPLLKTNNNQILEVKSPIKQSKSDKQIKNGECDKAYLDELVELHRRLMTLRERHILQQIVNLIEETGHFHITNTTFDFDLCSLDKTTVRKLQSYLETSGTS
# Ecoli rRNA inh OD600 = second read-out of Ecoli rRNA inh, no call of its own (marks repeat the call); OD600 change, %; measured here: OD600 growth;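 optical density of the mix in the first replicate; 0 = DMSO median and -100 = no signal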
# Ecoli rRNA inh RFP = second read-out of Ecoli rRNA inh, no call of its own (marks repeat the call); RFP signal change, %; measured here: RFP humanized mutant strains;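 first replicate; 0 = DMSO median and -100 = no signal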
# Starred values were filed as active, the others as inactive; i = inactive; ? = inconclusive; . = no result given; + = active, no number.
SMILES | E coli growth | A1 inh | UCH37 inh | Beta cell apopt | FGF22 binding | Ecoli rRNA inh | Ecoli rRNA inh OD600 | Ecoli rRNA inh RFP | T cruzi inh | AF4-AF9 inh
Oc1ccccc1N=N/C(=N/Nc1ccccc1O)c1ccccc1 | . | -0.1 | 3.5 | 1 | i | -2 | 14 | -2.4 | -18 | -3.5
Cc1ccccc1C(=O)Nc1cccc(NC(=S)NC(=O)c2cccs2)c1 | 0.72 | -0.3 | -0.9 | -3 | . | . | . | . | -14 | .
COC(=O)c1ccccc1NC(=O)C1CCCN(S(=O)(=O)c2ccccc2)C1 (centres undefined) | 0.67 | -0.7 | 0.4 | 1 | . | . | . | . | 9 | .
CCn1cc(CNC(=O)c2cc(-c3ccccc3OC)nc3ccccc23)c(C)n1 | 0.72 | 0.4 | 3.8 | 4 | . | . | . | . | 0 | .
O=C(COC(=O)CCSc1ccc(Cl)cc1)NCCc1ccccc1 | 0.66 | 0.1 | 3.8 | -3 | i | -8 | 2 | -3.8 | -3 | -1.2
Cc1ccc(S(=O)(=O)N(C)CC(O)Cn2c3ccccc3c3ccccc32)cc1 (centres undefined) | 0.79 | -0.9 | -2.5 | -3 | . | . | . | . | 6 | .
CCS(=O)(=O)c1ccc2oc(Nc3cc(C)cc(C)c3)nc2c1 | 0.68 | ? | 2.1 | -3 | . | . | . | . | 3 | .
CC1CCCN(Cc2cccc(Oc3ccccc3)c2)C1 (centres undefined) | 0.66 | -0.3 | 5.7 | 3 | . | . | . | . | 53 | .
CCN1CCN(C(=O)C2CCN(Cc3nc(-c4cccc(Cl)c4)oc3C)CC2)CC1 | 0.77 | -0.4 | 2.4 | 7 | i | 6 | 8 | 4.1 | -21 | 2.6
COc1cc(/C=C(/C#N)C(=O)NCCCc2ccccc2)ccc1OCC(=O)O | 0.67 | -0.1 | 4.3 | 0 | i | 2 | 3 | -1.4 | -6 | 5.0

# Taken from above.
# In T cruzi inh, CCN1CCN(C(=O)C2CCN(Cc3nc(-c4cccc(Cl)c4)oc3C)CC2)CC1 has the entry -21
# In UCH37 inh, CC1CCCN(Cc2cccc(Oc3ccccc3)c2)C1 (centres undefined) has the entry 5.7
# In Beta cell apopt, COC(=O)c1ccccc1NC(=O)C1CCCN(S(=O)(=O)c2ccccc2)C1 (centres undefined) has the entry 1

# Rewritten field by field: part of the list above.
O=C(COC(=O)CCSc1ccc(Cl)cc1)NCCc1ccccc1
  E coli growth = 0.66	A1 inh = 0.1	UCH37 inh = 3.8	Beta cell apopt = -3	FGF22 binding = i	Ecoli rRNA inh = -8	Ecoli rRNA inh OD600 = 2	Ecoli rRNA inh RFP = -3.8	T cruzi inh = -3	AF4-AF9 inh = -1.2

Cc1ccc(S(=O)(=O)N(C)CC(O)Cn2c3ccccc3c3ccccc32)cc1 (centres undefined)
  E coli growth = 0.79	A1 inh = -0.9	UCH37 inh = -2.5	Beta cell apopt = -3	FGF22 binding = .	Ecoli rRNA inh = .	Ecoli rRNA inh OD600 = .	Ecoli rRNA inh RFP = .	T cruzi inh = 6	AF4-AF9 inh = .

# The list continues:
SMILES | E coli growth | A1 inh | UCH37 inh | Beta cell apopt | FGF22 binding | Ecoli rRNA inh | Ecoli rRNA inh OD600 | Ecoli rRNA inh RFP | T cruzi inh | AF4-AF9 inh
COc1ccc(OC)c(/C=N/N2CCN(c3ccc(Cl)cc3)CC2)c1 | . | 0.0 | . | 0 | i | 14 | 1 | 4.5 | 0 | 0.0
O=C(CSc1nnc(NC2CCCCC2)s1)Nc1ccc(N2CCOCC2)cc1 | 0.67 | 0.5 | 4.2 | 2 | i | 20 | -1 | 2.5 | -4 | 0.9
CC(CNC(=O)C1CCCCC1C(=O)O)c1ccccc1 (centres undefined) | 0.71 | -0.3 | 4.2 | -1 | i | -2 | -3 | -1.9 | 9 | 2.4
Cc1ccc(NC(=O)CSc2nc(-c3ccco3)cc(C(F)(F)F)n2)cc1C | 0.71 | -0.3 | 1.2 | 4 | . | . | . | . | -4 | .
COc1cc(-c2cc(C(=O)OCC(=O)NC3CC3)c3ccccc3n2)cc(OC)c1OC | 0.69 | 0.8 | 1.3 | 3 | i | -1 | 11 | 1.4 | . | -2.0
Cc1cccc(Nc2ncc3c(n2)CC(C)CC3=O)c1 (centres undefined) | 0.78 | -5.7 | 3.1 | 2 | . | . | . | . | -3 | .
CCOC(=O)c1csc(NC(=O)c2cc(=O)c3ccccc3o2)n1 | 0.64 | -4.4 | 11 | 2 | i | -26* | -11* | -1.9* | 3 | -3.0
O=C(C1CCC1)N1CCc2cc(S(=O)(=O)NCCN3CCN(c4ccccc4F)CC3)ccc21 | 0.68 | -1.0 | 0.7 | 29 | . | . | . | . | 28 | .
Cc1cc(C(F)F)n2nc(C(=O)Nc3ccccc3Br)nc2n1 | 0.74 | -0.7 | -9.7 | 0 | . | . | . | . | -8 | .
COc1cc(C(=O)O)nc2ccc([N+](=O)[O-])cc12 | 0.64 | -0.1 | 8.9 | . | i | 11 | 17 | 0.8 | 4 | -3.8
CN(Cc1ccccc1)C(=O)c1[nH]cnc1C(=O)NC1CCN(C(=O)OC(C)(C)C)CC1 | 0.7 | 0.2 | 1.6 | 12 | + | 2 | -4 | -4.0 | . | 5.3
CN(C)CCN(Cc1ccccc1)S(=O)(=O)c1csc(C(N)=O)c1 | 0.65 | -0.7 | 1.6 | -4 | i | 8 | 9 | -0.8 | -2 | 1.7
CC(=O)Nc1ccc(S(=O)(=O)N2CCN(C(C)CCc3ccccc3)CC2)cc1 (centres undefined) | 0.67 | -0.4 | 2.8 | -12 | . | . | . | . | -20 | .
CCOc1ccccc1/C=c1\sc2ncnn2c1=O | . | 1.6 | . | -14 | . | 7 | 6 | 2.4 | -13 | .
COc1ccc(N=c2oc3c(OC)cccc3cc2C(=O)NCc2ccco2)c(OC)c1 | 0.74 | 0.0 | 5.7 | 29 | . | . | . | . | 24 | .
CCc1ccc(-n2c(SCC(=O)c3ccc4c(c3)NC(=O)CO4)nc3ccccc3c2=O)cc1 | 0.76 | 0.5 | 3.5 | 42 | i | 9 | 5 | -0.4 | -57 | 0.1
CCOC(=O)c1[nH]c2ccccc2c1NC(=O)C1CCCC1 | 0.72 | 0.7 | -5.1 | -11 | i | 7 | 14 | -2.5 | 5 | -4.3
O=C(NC1CCCC1)C(c1ccco1)N(C(=O)c1ccco1)c1ccc(F)cc1 (centres undefined) | 0.66 | 0.5 | 1.9 | -14 | i | 3 | -3 | 0.4 | 7 | 3.2
COc1ccccc1N1CCN(C(=O)N2CCOCC2)CC1 | 0.65 | -0.2 | 3.6 | 0 | . | 15 | 12 | 1.1 | -16 | .
CC(C)Oc1ccc(C(=O)NCCNC(=O)c2ccco2)cc1 | 0.65 | -0.1 | 2.9 | 1 | i | -1 | -23 | 5.2 | 5 | ?
O=C(NCc1ccc2c(c1)OCO2)c1cc(-c2ccccc2)c(N2CCOCC2)s1 | 0.75 | -0.8 | 0.9 | 4 | . | . | . | . | 8 | .
CC1CCN(CC(=O)Nc2ccc(S(=O)(=O)N3CCCC(C)C3)cc2)CC1 (centres undefined) | 0.69 | -1.3 | 4.0 | 7 | i | 2 | -7 | 5.9 | 2 | 4.4

# Retrieved by compound from the list above (3):
SMILES | E coli growth | A1 inh | UCH37 inh | Beta cell apopt | FGF22 binding | Ecoli rRNA inh | Ecoli rRNA inh OD600 | Ecoli rRNA inh RFP | T cruzi inh | AF4-AF9 inh
O=C(CSc1nnc(NC2CCCCC2)s1)Nc1ccc(N2CCOCC2)cc1 | 0.67 | 0.5 | 4.2 | 2 | i | 20 | -1 | 2.5 | -4 | 0.9
CCS(=O)(=O)c1ccc2oc(Nc3cc(C)cc(C)c3)nc2c1 | 0.68 | ? | 2.1 | -3 | . | . | . | . | 3 | .
CC1CCN(CC(=O)Nc2ccc(S(=O)(=O)N3CCCC(C)C3)cc2)CC1 (centres undefined) | 0.69 | -1.3 | 4.0 | 7 | i | 2 | -7 | 5.9 | 2 | 4.4

# With a hit mark in FGF22 binding, among the entries above:
mol,E coli growth,UCH37 inh,FGF22 binding,Ecoli rRNA inh,Ecoli rRNA inh OD600,Ecoli rRNA inh RFP,AF4-AF9 inh
CN(Cc1ccccc1)C(=O)c1[nH]cnc1C(=O)NC1CCN(C(=O)OC(C)(C)C)CC1,0.7,1.6,+,2,-4,-4.0,5.3

# An excerpt; count on the stated rates, not on these rows.
